VDR inhibitor – Inhibitors of the vitamin D receptor (VDR): qHTS; Vitamin D3 receptor (Homo sapiens), P11473; VDR-SRC2-3 peptide fluorescence polarization, 2 h; Potency, µM, for inactives: max response, negative = inhibition, most hits filed as inhibitors; actives 0.93% (n = 400,000); AID 504847, 2011; active = well fitted inhibition curve with a large enough effect; inconclusive = small, poorly fitted or top-dose-only effect, or another doubt; inactive = no such curve, though single readings can be large or run the other way; note: series mostly up to about 120 µM
Target sequence (P11473 whole entry, looked up): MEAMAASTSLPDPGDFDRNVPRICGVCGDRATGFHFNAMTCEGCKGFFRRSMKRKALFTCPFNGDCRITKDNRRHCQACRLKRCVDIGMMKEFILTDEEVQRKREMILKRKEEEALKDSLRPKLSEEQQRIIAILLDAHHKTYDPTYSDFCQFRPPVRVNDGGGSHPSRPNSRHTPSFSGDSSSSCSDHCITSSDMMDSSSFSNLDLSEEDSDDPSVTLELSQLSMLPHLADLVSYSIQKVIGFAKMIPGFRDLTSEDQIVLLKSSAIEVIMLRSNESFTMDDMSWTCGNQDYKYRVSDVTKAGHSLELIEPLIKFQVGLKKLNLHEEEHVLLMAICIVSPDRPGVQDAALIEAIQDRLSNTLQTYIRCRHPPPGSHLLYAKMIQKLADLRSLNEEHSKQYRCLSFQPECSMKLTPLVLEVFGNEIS
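The screen uses fluorescence polarization to detect compounds that interfere with recruitment of the SRC2-3 coactivator peptide to VDR; plates are read after 2 h at room temperature.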
Numbers without * were called inactive; ? = inconclusive; & = joins results of further samples; [ ] = another dose, or the depositor's remark. % is set by controls: 0 for no effect and ±100 for the full control effect; potency is the fitted concentration of half-maximal effect.

VDR inhibitor	molecule
13.1%	Cc1ccc2c(CN(C)Cc3cccc(Cl)c3)cc(=O)oc2c1C
12.0%	CN(C)c1ccc(CNc2nc(-c3ccco3)nn2S(C)(=O)=O)cc1
-14.5%	Oc1[nH]c2ccccc2c1N=Nc1ccccc1F
-7.7%	CN(C)S(=O)(=O)c1cccc(NC(=S)NC(=O)c2ccco2)c1
-9.6%	C=CCN(C(=O)c1csnn1)C(C(=O)NCc1ccccc1)c1c(F)cccc1Cl (configuration not stated)
8.5%	CCOc1ccc(NC(=O)C(NS(=O)(=O)c2cccc3nsnc23)c2ccccc2)cc1 (configuration not stated)
0.1%	CCc1cc2c(=O)n(Cc3ccco3)c(SCC(=O)NCC3CCCO3)nc2s1 (configuration not stated)
3.4%	O=C(Nc1cc(S(=O)(=O)N2CCOCC2)ccc1Cl)C(=O)c1c(-c2ccccc2)cc2ccccn12
-11.6%	COc1ccccc1NC(=O)COC(=O)CCn1c(C)csc1=O
-2.1%	CCn1c(SCC(=O)Nc2ccc(C)cc2)nnc1-c1cnccn1
-18.0%	CN(CC(=O)Nc1cccc(F)c1)C(=O)c1ccc(N2C(=O)c3ccccc3C2=O)cc1
-9.7%	CC(C)NC[C@@H](O)COc1ccc(CC(N)=O)cc1
14.5%	COc1ccc(Nc2c3c(nc4nncn24)CCC3)cc1OC
-5.9%	CCC1CCCCN1C(=O)CCS(=O)(=O)c1ccccc1 (configuration not stated)
-19.0%	COc1ccc(C(CCO)NC(=O)c2cccs2)cc1OC (configuration not stated)
11.0%	c1ccc(N2CCCCC2)c(Nc2nc3ccccc3n3cnnc23)c1
-4.0%	CC(c1ccc(F)cc1)n1c(-c2cccs2)n[nH]c1=S (configuration not stated)
6.7%	O=C(CN1CCN(S(=O)(=O)/C=C/c2ccccc2)CC1)Nc1ccc(N2CCOCC2)cc1
15.1%	CCc1ccc(OCC(=O)N/N=C/c2cc([N+](=O)[O-])ccc2N2CCOCC2)cc1
-6.0%	O=C(CN1CCN(C(=O)C2CCCO2)CC1)Nc1ccc(F)cc1 (configuration not stated)
4.2%	CCc1ccc(OCc2nc(-c3ccc(OC)cc3)no2)c(Br)c1
4.8%	Cc1cc(-n2c(C)nc3ccccc3c2=O)ccc1NC(=O)c1cccc([N+](=O)[O-])c1C
20.4%	CCCOc1c(Cl)cc(C(=O)Nc2ccc3c(c2)OCO3)cc1OCC
-4.7%	COC(=O)c1cc2n(n1)CCN(Cc1ccc(F)cc1)C2=O
-8.1%	COc1ccc(-n2c(COc3ccc(C)cc3)nnc2SCC(N)=O)cc1

The closing two records of the section before open the next one.
VDR inhibitor	molecule
-4.7%	COC(=O)c1cc2n(n1)CCN(Cc1ccc(F)cc1)C2=O
-8.1%	COc1ccc(-n2c(COc3ccc(C)cc3)nnc2SCC(N)=O)cc1
-9.7%	CCSc1nc2ccccc2n1C(=O)Oc1ccccc1
7.1%	CSc1ncccc1C(=O)Nc1cc(C)ccn1
11.5%	COCCNC(=O)CN1CCC(NC(=O)C(C)(C)C)CC1
-2.2%	CCCn1c2c(c(O)c(C(=O)NC)c1=O)CCCC2
-13.4%	CCNC(=S)N/N=C(\C)c1cc2ccccc2o1
-6.5%	Cc1ccc(SCC(=O)OCC(=O)N2CCN(C(=O)c3ccco3)CC2)c(C)c1
-3.3%	COC(=O)c1[nH]c2ccc(C)cc2c1NC(=O)Nc1ccc(OC)cc1
2.8%	Cc1ccc(C(C)C)c(OCC(=O)NNCC(=O)Nc2cccc(F)c2)c1
-11.8%	COc1ccc(C(=O)/C(=C/N(C)C)S(=O)(=O)c2ccccc2)cc1
0.5%	C=CCOC(=O)C1=C(C)Nc2nnnn2C1c1cccs1 (configuration not stated)
-6.3%	c1ccc(COc2ccc(OCCCCN3CCCC3)cc2)cc1
-7.7%	O=C(NCc1ccco1)c1ccc2snnc2c1
1.7%	CCOC(=O)c1ccc(S(=O)(=O)N2CCN(CC(=O)NC(=O)NC3CCCCC3)CC2)cc1
5.5%	O=C(Nc1cccc(C(=O)NC2CC2)c1)c1ccc(Cl)c(S(=O)(=O)N2CCOCC2)c1
?	CCOC(=O)/C(C#N)=C/C=C1\C=Cc2ccccc2N1CC
20.5%	Cc1ccc(C(=O)NCc2cccc(C(F)(F)F)c2)cc1S(=O)(=O)N1CCCCC1
-11.0%	CSc1nc(N2CCOCC2)nc2ccc(C)cc12
-4.9%	CCN(CC)c1ccc(/C=N/NC(=O)CC(C)C)cc1
6.0%	CC(C)S(=O)(=O)C1=NSC2=NC(=O)/C(=C\c3ccc(OC(=O)c4ccco4)cc3)C(=N)N21
-6.6%	COc1ccccc1C(=O)C1CCCN(C(=O)c2cn3cc(Cl)ccc3n2)C1 (configuration not stated)
-0.2%	CSc1ccccc1NC(=O)C1CCCO1 (configuration not stated)
11.9%	Cc1cc(NC(=O)c2ccc(NC(=O)C(C)C)cc2)no1
7.6%	CC(C)CN(C(=O)COC(=O)c1cnccn1)c1c(N)n(Cc2ccccc2)c(=O)[nH]c1=O
-7.4%	CN(CCOc1ccc(Br)cc1)CC(O)c1ccccc1 (configuration not stated)
-19.1%	O=C(/C=C/c1ccc(F)cc1)Nc1ccc(S(=O)(=O)Nc2ncccn2)cc1

Single values from the entries so far:
VDR inhibitor with CSc1ccccc1NC(=O)C1CCCO1 (configuration not stated) = -0.2%
VDR inhibitor with COc1ccccc1C(=O)C1CCCN(C(=O)c2cn3cc(Cl)ccc3n2)C1 (configuration not stated) = -6.6%

Nothing new here: three of the compounds above.
VDR inhibitor	molecule
-9.7%	CCSc1nc2ccccc2n1C(=O)Oc1ccccc1
7.1%	CSc1ncccc1C(=O)Nc1cc(C)ccn1
11.5%	COCCNC(=O)CN1CCC(NC(=O)C(C)(C)C)CC1

Next part
VDR inhibitor	molecule
3.8%	Cc1c(NC(=O)C2CC(c3c(F)cccc3Cl)=NO2)c(=O)n(-c2ccccc2)n1C (configuration not stated)
20.8%	Cc1c(Cl)cccc1NC(=O)CSc1nc2ncc(Cl)cc2[nH]1
-2.8%	O=S(=O)(Nc1cccc(S(=O)(=O)N2CCOCC2)c1)c1cccs1
6.7%	COc1ccccc1NCCC(=O)OCC(=O)NC1CCCCC1
-11.2%&-4.2%	COc1ccc(SCCN2CCN(C)CCC2=O)cc1
-14.9%	CN(C(=O)CSc1nncc2ccccc12)c1ccccc1
19.7%	CC(C)C(=O)N1CCN(c2ccc(NC(=O)c3ccco3)cc2Cl)CC1
-28.7%	CCN(CC)c1ccc(/C=N/NC(=O)c2ccco2)cc1
-1.5%	CN(CCCNC(=O)c1ccccc1F)CCCNC(=O)c1ccccc1F
-7.1%	O=C(Nc1cccc(NC(=O)c2ccccc2Cl)c1)c1cccc(Br)c1
-5.1%	Cc1nn(C(=O)c2nn(C)cc2[N+](=O)[O-])c(C)c1Cl
21.2%&12.7%	Cc1cccc(C)c1OCC(=O)NC(Cc1c[nH]c2ccccc12)C(=O)O (configuration not stated)
-14.8%	Cc1nnc(NC(=O)CCSCCC(=O)Nc2nnc(C)s2)s1
0.9%	CC(C)(C)c1ccc(C2(C)NC(=O)N(CC(=O)NCc3cccs3)C2=O)cc1 (configuration not stated)
-5.9%	CCOC(=O)CN=C/C(C(C)=O)=C(/C)O
-2.0%	COc1ccc(C(=O)c2ccccc2)cc1Br
6.0%	O=C(Cn1cnc2ccccc2c1=O)NCCC(=O)Nc1ccc2c(c1)OCCO2
2.9%	CCN1CCN(C(C)C(=O)Nc2c(C)n(C)n(-c3ccccc3)c2=O)CC1 (configuration not stated)
-17.5%	O=C1C2C(C(=O)N1/N=C/c1ccc([N+](=O)[O-])o1)C1C=CC2C12CC2 (configuration not stated)
18.6%	O=C(N[C@@H](Cc1ccccc1)C(=O)OCc1ccccc1)c1nc[nH]c1C(=O)N1CCNCC1
-14.5%	CCCn1c(N)c(C(=O)CSc2ncc(C(F)(F)F)cc2Cl)c(=O)[nH]c1=O
-26.5%	NNC(=O)c1ccc(COc2ccc3c(c2)CCC3)o1
6.3%	C/C(=N/NS(=O)(=O)c1ccc(F)cc1)c1ccc(NC(=O)c2ccc(C)o2)cc1
-12.7%	COc1ccc(C(=O)NNC(=O)C2CCCN(C3CC(=O)N(c4ccccc4)C3=O)C2)cc1 (configuration not stated)
-10.0%	Cc1ccc(-n2c(C)c(C)c3c(NCCN(C)C)ncnc32)cc1

Four entries from above, ordered by the value under VDR inhibitor, high to low:
VDR inhibitor	molecule
3.8%	Cc1c(NC(=O)C2CC(c3c(F)cccc3Cl)=NO2)c(=O)n(-c2ccccc2)n1C (configuration not stated)
2.9%	CCN1CCN(C(C)C(=O)Nc2c(C)n(C)n(-c3ccccc3)c2=O)CC1 (configuration not stated)
0.9%	CC(C)(C)c1ccc(C2(C)NC(=O)N(CC(=O)NCc3cccs3)C2=O)cc1 (configuration not stated)
-2.8%	O=S(=O)(Nc1cccc(S(=O)(=O)N2CCOCC2)c1)c1cccs1

Continued:
VDR inhibitor	molecule
-2.8%	O=C(CCNS(=O)(=O)c1ccccc1)OCC(=O)c1ccc[nH]1
-3.4%	O=C1CCCc2c1nc(-c1ccccc1F)n2O
10.1%	CCOc1ccccc1NC(=O)Cn1c(C)cc(COC)c(C#N)c1=O
0.3%	Cc1ccc(Cl)cc1N1CCN(C(=O)c2ccc(NC3=NC4CS(=O)(=O)CC4S3)cc2)CC1 (configuration not stated)
19.9%	CCn1cc(/C=C(\NC(=O)c2ccccc2)C(=O)NCCCN2CCOCC2)c2ccccc21
4.7%	COc1ccccc1-n1c([S-])c(C(=O)Nc2ccccc2C(F)(F)F)[n+]2ccc(C(=O)NCCO)cc12
-6.3%	CCC(C(=O)OC)n1cnc2c(nnn2-c2cccc(OC)c2)c1=O (configuration not stated)
-9.4%	CCOC(=O)C1=C(C)Nc2nc(C)nn2C1c1ccc(OC)c(OC)c1 (configuration not stated)
22.6%	Cc1ccc(-c2cc(C(F)F)n3ncc(C(=O)N4CCN5CCCC5C4)c3n2)cc1 (configuration not stated)
3.5%	CCOCCn1c(SCc2c(F)cccc2Cl)nc2c1c(=O)[nH]c(=O)n2C
4.6%	O=C1Nc2ccc([N+](=O)[O-])cc2C1(O)N1CCCCCC1 (configuration not stated)
9.4%	COCCCNC(=O)CN(CCc1ccccc1)S(=O)(=O)c1ccccc1
8.2%	O=C(Nc1ccc(C(=O)O)cc1)/C(=C\c1ccccc1)NC(=O)c1ccccc1
8.1%	COc1ccccc1Nc1nc(C)nc2c1oc1ccccc12
-0.7%	COc1ccc(C(CC(=O)N2CCCC2)C(C)C)cc1 (configuration not stated)
4.3%	Cc1sc(NC(=O)c2ccco2)c(C(c2cccnc2)N2CCC(C)CC2)c1C (configuration not stated)
-17.5%	O=[N+]([O-])c1ccc(COP(=O)(O)OCc2ccc([N+](=O)[O-])cc2)cc1
14.0%	Cc1ccccc1-n1nc2c(c1NC(=O)c1cccc(F)c1)CS(=O)C2 (configuration not stated)
-15.3%	CCOCCn1c(N(C)Cc2ccccc2)nc2c1c(=O)[nH]c(=O)n2C
-31.3%	CC(=O)OCC1=C(C(=O)O)N2C(=O)C(NC(=O)C(C)Cn3nc(C)c(Cl)c3C)C2SC1 (configuration not stated)
-22.5%	O=C1Nc2cc(C(=O)N3CCc4ccccc4C3)ccc2S/C1=C\c1ccccc1
-8.4%	CNC(=S)Nc1cccc(C(C)=O)c1
-8.9%	COc1ccc(NC(=O)N2CCCc3ccccc32)cc1OC
-0.8%	Cc1cc(C)n(CCC(=O)N2CCc3ccccc32)n1
-13.3%	Cc1ccc(NC(=O)NCc2ccc3[nH]c(C)cc3c2)cc1
-3.7%	O=c1c(-c2ccc(F)cc2)nc2cnc(N3CCNCC3)nc2n1C1CC1
32.6%[activator]	CCC(C)(C)NS(=O)(=O)c1cc(CN2C(=O)c3cccnc3C2=O)ccc1OC
7.5%	Cc1ccc(C)c(Cn2c(C(C)NC(=O)c3ccc(F)cc3)nc3ccccc32)c1 (configuration not stated)
1.4%	Cc1ccc(NC(=O)c2ccc(CN3CCc4ccccc4C3)cc2)cc1
3.0%	O=C(N/N=C/c1ccco1)C1CC1c1ccccc1 (configuration not stated)
-26.4%	O=C(Nc1ccc(S(=O)(=O)Nc2ncccn2)cc1)C1=COCCO1
-5.6%	C=CCn1cc(/C=C/c2cc[n+](C)cc2)c2ccccc21
16.0%	Cc1ccc(NC(=O)Nc2nnc(N3CCCCC3)s2)c(C)c1
-15.9%	CN(Cc1c(F)cccc1Cl)C(=O)c1ccc(NC(=O)CC2SC(N3CCCCC3)=NC2=O)cc1 (configuration not stated)
-3.7%	Oc1ccccc1CN1CCCC(N2CCc3ccccc3C2)C1 (configuration not stated)
-2.3%	Cc1coc2c1c(C)cc1oc(=O)cc(C)c12
-1.6%	Cc1cccn2c(=O)c3cc(C(=O)NC4CCCC4)c(=N)n(CCc4ccccc4)c3nc12
11.3%	C[C@@H](CCCCC(=O)Nc1ccc(C(F)(F)F)cc1)NCCc1cnc[nH]1
4.6%	CCN(CCCNS(=O)(=O)c1ccc2c(c1)CCN2C(C)=O)c1cccc(C)c1
5.5%	COc1cc(-n2c(N)c(C(=O)NCc3ccco3)c3nc4ccccc4nc32)cc(OC)c1OC
1.1%	COc1ccc(N(C)S(=O)(=O)c2ccc3c(c2)CC(C)N3C(=O)C2CC2)c(OC)c1 (configuration not stated)
-2.1%	COc1ccc2[nH]c3c(c2c1)CCN1C(=O)C(CC(=O)NCCCN(C)C)C[C@H](C(=O)N2CCCCC2)[C@@]31C (some centres not stated)
-8.4%	Cc1coc2cc3oc(=O)c(CCC(=O)NCC(=O)O)c(C)c3cc12
-2.6%&4.4%	CN(Cc1ccccc1)C(=O)CCS(=O)(=O)c1ccc2c(c1)oc(=O)n2C
-14.4%	CC(=NC(C)C)C1=C(O)C(C)OC1=O (configuration not stated)
1.6%	Nc1nc(Nc2cccc(F)c2)nc(NCCO)c1[N+](=O)[O-]

Not all compounds are listed; the hit share may differ from the screen's.
